Assay outcomes as filed in PubChem.
YopH inh: YopH tyrosine phosphatase inhibitors, primary screen, biochemical, fluorescence Ex485/Em525; YopH tyrosine phosphatase [Yersinia enterocolitica]; inhibition, %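 (about 10 µM by stock and volumes)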; 140,000 compounds, 0.16% hits;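 active = inhibition of 50% or more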;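 also: controls were vehicle for no effect and minimum signal wells for full effect; inactives centre near -20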
Mtb betalactam: beta-lactam sensitization of Mtb H37Rv, H37Rv. M. tuberculosis H37Rv growth with meropenem, percent inhibition; hits of this screen are not shown here. inhibition, % at 25 µM. 330,000 compounds, 0.27% hits;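 active = about 74% or more and at least 40 points above the plate without the antibiotic, then above 30% in a dose series; inconclusive = first-round hits that could not be retested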;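 also: growth measured after seven days incubation then overnight dye step; 0% = bacteria only wells and 100% = bacteria with antibiotic; twin plates without the antibiotic show which effects depend on it; some results filed as inactive read as strong as hits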
Mtb growth: M. tuberculosis H37Rv growth inhibitors, H37Rv strain (AID 1626); M. tuberculosis H37Rv growth inhibition; higher % means a stronger effect; 220,000 compounds, 0.95% hits; one-dose inhibition, % at 10 µM; IC50 in µM for titrated hits;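 active = confirmed in a dose series; inconclusive = inhibition above 80% but not taken into the dose series; inactive = below 80% or under 30% at every dose of the series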;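 also: bacteria incubated seven days before Alamar blue readout; 0% = bacteria only wells and 100% = bacteria with antibiotic wells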
Arbovirus anti: antivirals against arbovirus infection, primary screen, cell-based, full library, 10K replicate subset; inhibition, % at 10 µM; arbovirus infection cell-based antiviral screen; AID 1251, 2008; 200,000 compounds, 0.37% hits;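 active = inhibition from about 30%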;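 also: bluetongue infection of BSR cells; cell survival read as ATP light after 72 h; 0% = infected wells without compound and 100% = uninfected wells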
RecA intein inh: Mtb RecA intein splicing inhibitors, primary screen, biochemical, fluorescence, HTS. cell-free RecA intein splicing. inhibition, %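 (about 9 µM by stock and volumes)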. 290,000 compounds, 0.75% hits; in the data active = inhibition above about 30%; inconclusive = no clear call, values can overlap the other calls;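 also: 0% = vehicle wells and 100% = reference inhibitor control wells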
Target sequence (P9WHJ3 whole entry, looked up): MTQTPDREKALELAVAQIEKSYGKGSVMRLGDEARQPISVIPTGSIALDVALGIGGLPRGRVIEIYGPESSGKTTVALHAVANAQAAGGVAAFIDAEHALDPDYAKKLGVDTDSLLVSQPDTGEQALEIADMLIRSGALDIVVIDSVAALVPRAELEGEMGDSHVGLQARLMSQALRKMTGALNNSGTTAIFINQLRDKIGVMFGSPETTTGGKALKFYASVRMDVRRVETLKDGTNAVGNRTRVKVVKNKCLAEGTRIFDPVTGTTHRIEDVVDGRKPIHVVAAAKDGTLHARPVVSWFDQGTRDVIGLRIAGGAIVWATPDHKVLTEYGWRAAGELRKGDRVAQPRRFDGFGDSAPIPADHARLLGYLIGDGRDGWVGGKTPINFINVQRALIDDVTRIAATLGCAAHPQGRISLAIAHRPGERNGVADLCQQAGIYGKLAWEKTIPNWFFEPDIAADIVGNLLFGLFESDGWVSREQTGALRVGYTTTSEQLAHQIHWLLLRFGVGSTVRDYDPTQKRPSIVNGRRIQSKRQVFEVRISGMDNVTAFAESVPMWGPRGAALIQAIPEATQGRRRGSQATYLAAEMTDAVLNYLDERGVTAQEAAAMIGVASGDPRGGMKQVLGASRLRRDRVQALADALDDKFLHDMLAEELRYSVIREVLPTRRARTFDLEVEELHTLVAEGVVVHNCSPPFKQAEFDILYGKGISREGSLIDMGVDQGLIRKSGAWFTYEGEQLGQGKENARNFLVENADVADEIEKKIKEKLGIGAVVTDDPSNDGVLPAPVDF
Arbovirus anti repeat: second read-out of Arbovirus anti, no call of its own (marks repeat the call); inhibition, %; measured here: 10K subset replicate screen; many hits read low in the repeat;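 first of two repeat runs on a subset; 0% = infected and 100% = uninfected wells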
The depositor's hits bear a star; ? = inconclusive; / = no result given; & = joins results of further samples.

SMILES	YopH inh	Mtb betalactam	Mtb growth	Arbovirus anti	RecA intein inh	others
CCOC(=O)C1=C(C)OC(N)=C(C#N)C1C1CCCCC1 (configuration not stated)	-18.6	-13.9	-1.8%	-7.2	-0.3
CC(=O)Nc1cc(Cl)c(N=Cc2ccc(O)cc2O)cc1Cl	/	4.8	4.5%	5.2	0.4
C#Cc1cccc(NC(=O)c2ccc(Cl)cc2Cl)c1	/	49.5	-6.1%	/	10.9
COc1ccc(C2C(C(=O)c3cccs3)=C(O)C(=O)N2CCN2CCOCC2)c(OC)c1 (configuration not stated)	/	0.3	/	/	-1.4
COc1ccc(CNCCc2ccccc2)cc1OCC(N)=O	-29.1	-13.6	-1.2%	-3.7	-0.2
N#Cc1ccccc1NC(=O)Nc1cccc(Cl)c1	-5.4	0.8	0.8%	-1.6	0.9
Cc1cc(/C=N/NC(=O)c2ccccc2F)c(C)n1-c1ccccc1	/	97.2	2.9%	-9.1	0.1
O=C(CNC(=O)c1ccccc1F)OCC(=O)N1CCCCC1	-10.3	5.1	-9.7%	-11.3	-0.1
COc1ccc(CCNc2oc(-c3ccc(C)cc3)nc2C#N)cc1OC	-34.2	3.1	5.9%	4.1	0.7	Arbovirus anti repeat=0.2
CN(CC(=O)NCc1cccs1)S(=O)(=O)c1cccc2cccnc12	-19.9	0.4	-11.8%	2.7	-0.8
Cc1ccc(S(=O)(=O)N2CCN(C(=O)N3CCOCC3)CC2)c(C)c1	/	-8.7	/	/	0.6
CS(=O)(=O)c1ccc(-c2cccc(NC(=O)COc3ccc(Cl)cc3)c2)nn1	/	6.3	/	/	-6.0
CC1(C)CC(=O)C(C=NCCN2CCN(C(=O)CC3CCCC3)CC2)=C(O)C1	-45.8	/	-9.7%	-2.2	-0.6	Arbovirus anti repeat=0.5
C[C@@H]1CC=C[C@H]2[C@H]1C(=O)N(Cc1ccccc1)[C@H]2c1cccc([N+](=O)[O-])c1	/	-2.2	5.7%	/	15.2
Cn1c(=N)n(CC(O)c2cccs2)c2ccccc21 (configuration not stated)	/	4.0	-4.8%	7.1	-2.8
O=C1NC(NS(=O)(=O)c2ccc(Cl)cc2)(C(F)(F)F)C(=O)N1c1ccccc1 (configuration not stated)	-28.1	1.9	0.2%	5.2	3.4
O=c1n(-c2ccccc2)c(=O)n2n1CCCC2	-18.0	0.1	3.1%	-0.1	1.8
COC(=O)c1cc(S(=O)(=O)NCc2cccc(OC)c2)cn1C	/	-10.3	/	/	4.4
CCCCN1C(=O)C(=O)NC[C@@H]1C(C)CC (some centres not stated)	/	-8.2	9.1%	/	-1.3
c1ccc2c(CSc3ncnc4nc[nH]c34)cccc2c1	/	5.1	-2.9%	-26.7	2.0
N/N=C1\CCCc2c1[nH]c1ccc([N+](=O)[O-])cc21	/	-4.7	-5.2%	/	3.1
CCCCN(C(=O)c1cc(CC)c(C)s1)c1c(N)n(CC(C)C)c(=O)[nH]c1=O	/	-4.7	/	/	0.5
COc1ccc(/C=C/C(=O)NNc2c(F)c(F)cc(F)c2F)cc1OC	-104.1	0.9	-0.8%	4.7	1.2
O=C(O)c1ccccc1-c1ccccc1C(=O)NCc1ccccc1F	/	-1.3	/	/	-2.5
COc1cccc(C(c2sc3nc(C)nn3c2O)N2CCc3ccccc3C2)c1 (configuration not stated)	-29.8	-4.3	2.1%	-1.8	8.0
N#CCC(=O)N1CCN(C=O)CC1	/	7.3	-5.3%	9.6	-1.8
CCCCC(=O)Nc1cccc(NC(=O)CC)c1	-38.2	0.0	3.0%	-4.5	-1.2
COc1ccc(CCN2CC(C(=O)NCc3nc(C)c(C)s3)CCC2=O)cc1 (configuration not stated)	/	-0.2	/	/	-0.6
O=C(NN(CC(O)COc1ccccc1)CC(O)COc1ccccc1)c1ccccc1 (configuration not stated)	/	-9.0	-4.1%	/	1.4
COC/C=C/C1=CC2=CC(=O)C(C)(OC(=O)c3ccco3)C(=O)C2=CO1 (configuration not stated)	/	3.5	-8.7%	/	/
CCCc1cc(N2CCCC(C(=O)Nc3c(OC)cccc3OC)C2)n2ncnc2n1 (configuration not stated)	-21.0	-1.9	-2.3%	0.7	/
Cc1ccc(NC(=O)CSc2ncnc3ccccc23)cc1S(=O)(=O)N1CCCCC1	-45.7	-2.3	8.8%	7.7	3.3
Cc1ccc(NC(=O)C(=O)NN=C2CCCC2)cc1C	/	-0.2	19.1%	-5.3	-0.4
COc1ccccc1-c1nc2n(n1)C(c1ccc(Cl)cc1)C(C(N)=O)=C(C)N2 (configuration not stated)	3.4	3.1	0.6%	-1.1	-0.5
CS(=O)(=O)CCC(C(=O)N1CCOCC1)N1C(=O)c2cc(Cl)c(Cl)cc2C1=O (configuration not stated)	-23.4	-5.6	-4.8%	1.9	-0.4
CC(C)CN(CC(C)C)S(=O)(=O)N1CCC(C(=O)NCc2ccc(F)cc2)CC1	-3.4	-5.7	-8.8%	6.2	/
CCOC(=O)c1cnc(SCC(=O)c2ccc(C)cc2)nc1N	-13.5	1.8	4.8%	-2.0	0.1
COC(=O)CCC(=O)Oc1ccc(OC(=O)CCC(=O)OC)cc1	59.1*	-1.3	6.9%	-28.6	-0.2	Arbovirus anti repeat=-12.1
O=C(N=C1N=C2C=CC=CN2Cc2ccccc21)c1ccc(S(=O)(=O)N2CCOCC2)cc1	/	4.6	0.8%	11.9	-0.4
COc1ccc(CCn2c(N3CCOCC3)nc3c2c(=O)[nH]c(=O)n3C)cc1	-22.2	0.6	-1.3%	-3.1	-2.1
Cc1cc(C)c2nc(NNC(=O)c3ccc(S(=O)(=O)N4CCCC(C)C4)cc3)sc2c1 (configuration not stated)	-45.8	-6.1	/	-34.6	-6.5
CCOc1ccccc1NC(=O)CN(C)S(=O)(=O)c1cnc[nH]1	/	-1.4	/	9.9	-0.2
CCN(CC)CCNC(=O)COc1ccc(OC)cc1	/	-5.7&-3.0	/	/	0.1
CC(C)Oc1ccc(CNC(=S)Nc2ccccc2)cc1Cl	/	-4.8	/	/	5.6
Cc1ccccc1NS(=O)(=O)c1ccc(C)c(C(N)=O)c1	-22.4	-6.8	-4.0%	3.9	-0.8
CCOC(=O)C1=C(C)N=c2s/c(=C\c3ccc(C(=O)O)cc3)c(=O)n2C1c1ccc(F)cc1 (configuration not stated)	/	42.8	/	/	0.0
CCCCSCc1cc(C(=O)O)oc1C(C)(C)C	/	4.1	-5.6%	4.7	-0.1
Cc1ccc2cccc(OC(=O)/C=C\c3ccccc3)c2n1	/	13.3	-1.2%	-3.4	-1.0

The final 3 entries of the part before are carried over, then new ones follow:
SMILES	YopH inh	Mtb betalactam	Mtb growth	Arbovirus anti	RecA intein inh	others
CCOC(=O)C1=C(C)N=c2s/c(=C\c3ccc(C(=O)O)cc3)c(=O)n2C1c1ccc(F)cc1 (configuration not stated)	/	42.8	/	/	0.0
CCCCSCc1cc(C(=O)O)oc1C(C)(C)C	/	4.1	-5.6%	4.7	-0.1
Cc1ccc2cccc(OC(=O)/C=C\c3ccccc3)c2n1	/	13.3	-1.2%	-3.4	-1.0
C=CCn1c(O)c(C(CC)=NCCCO)c(=O)[nH]c1=O	-34.1	-14.0	-7.6%	5.1	0.5
CCc1cccc(CC)c1NC(=O)c1cc(CN2C(=O)c3ccccc3C2=O)ccc1OC	-16.8	5.6	7.5%	4.0	18.3
CCNC(=O)c1cccc(NC(=O)CC2SC(N3CCCCC3)=NC2=O)c1 (configuration not stated)	/	-11.1	/	/	3.0
COc1c(C)cc(C(=O)C2CCCN(C3CCOCC3)C2)cc1C (configuration not stated)	/	-15.5	-3.4%	-1.2	5.3
CCN(Cc1ccncc1)C(=S)Nc1ccccc1	/	-0.1	0.0%	3.2	-2.0
Cc1c(C(=O)OC(C)C)[nH]c2c1C(=O)CCC2	-8.2	5.0	0.9%	1.5	8.3
Cc1nc2sc(C(=O)c3ccccc3)c(N)c2c(C)c1C	/	24.8	3.7%	-2.7	-4.6
CCOC(=O)CON1C(=O)C(=O)N(OCC(=O)OCC)C2CCCCC21 (configuration not stated)	/	2.1	-3.0%	3.0	2.8
COc1ccccc1OCCC(=O)OCC(=O)c1[nH]c(C)c(C(C)=O)c1C	/	0.3	3.9%	8.1	2.0
CCOc1cc(/C=C/C(=O)Nc2ccc(C(=O)NCCN(CC)CC)cc2)ccc1OCC(C)C	/	76.1	5.7%	-34.9	5.0
Cc1cc(C)c(S(=O)(=O)Nc2ccc(O)c(Sc3ncn[nH]3)c2)cc1C	/	?	/	/	-3.7
O=C1N=c2ccccc2=C/C1=C\c1c(O)[nH]c(=S)[nH]c1=O	-27.9	-4.3	1.8%	3.4	-10.0

Quoted at random: five records from the list.
SMILES	YopH inh	Mtb betalactam	Mtb growth	Arbovirus anti	RecA intein inh	others
CCNC(=O)c1cccc(NC(=O)CC2SC(N3CCCCC3)=NC2=O)c1 (configuration not stated)	/	-11.1	/	/	3.0
CCOC(=O)CON1C(=O)C(=O)N(OCC(=O)OCC)C2CCCCC21 (configuration not stated)	/	2.1	-3.0%	3.0	2.8
COc1ccc(C2C(C(=O)c3cccs3)=C(O)C(=O)N2CCN2CCOCC2)c(OC)c1 (configuration not stated)	/	0.3	/	/	-1.4
COc1ccccc1OCCC(=O)OCC(=O)c1[nH]c(C)c(C(C)=O)c1C	/	0.3	3.9%	8.1	2.0
CC(=O)Nc1cc(Cl)c(N=Cc2ccc(O)cc2O)cc1Cl	/	4.8	4.5%	5.2	0.4

The listing continues:
SMILES	YopH inh	Mtb betalactam	Mtb growth	Arbovirus anti	RecA intein inh	others
CC(=O)Nc1ccc(S(=O)(=O)Nc2ccc(Cl)cn2)cc1	/	-0.5	/	/	-1.8
Cc1ccc(-c2cc(C(F)(F)F)n3ncc(C(=O)O)c3n2)cc1	-10.4	/	-3.4%	3.5	-1.1
CNS(=O)(=O)c1cccc(C(=O)OCC(=O)Nc2ccc(Cl)cn2)c1	/	-11.1	-6.0%	/	-1.3
C/C(CC(c1ccccc1)c1c(O)c2ccccc2oc1=O)=N\Nc1ccc([N+](=O)[O-])cc1[N+](=O)[O-] (configuration not stated)	/	-4.0	-11.5%	/	10.8
O=C(NCCSCc1ccccc1)c1ccccc1	-3.1	-3.1	6.3%	-3.9	3.0
Cc1ccc2cccc(OCc3nnc(SCC(=O)O)n3C)c2n1	/	-2.4	5.1%	0.6	1.6
O=C(NCc1cccnc1)[C@@H]1CC=C[C@@H]2CCN(Cc3ccc(Cl)c(Cl)c3)C(=O)[C@@H]21	/	-8.8	7.0%	/	2.5
COc1ccc(N(C(=O)c2ccco2)C(C(=O)NC2CCCCC2)c2ccccc2)cc1 (configuration not stated)	9.7	3.5	-7.0%	-2.5	0.3
NNC(=O)/C(=C\c1ccc(Br)cc1)NC(=O)c1cccs1	/	-7.5	-3.7%	-5.6	-1.7
O=C(/C=C/Nc1ccccc1O)c1ccco1	/	96.6	66.5%	/	-2.1
O=C(COc1ccccc1)N1CCN(C(=O)c2cccc(F)c2)CC1	-50.6	-7.9	-0.8%	10.9	-0.7
COc1ccc(S(=O)(=O)N2CCN(C(=O)COc3ccc4c(C)cc(=O)oc4c3)CC2)cc1	-26.5	/	6.8%	7.5	-1.1
Cc1ccc(-c2cc(C(=O)N3CCc4ccccc4C3)no2)cc1	/	2.2	1.8%	-0.3	2.6
CCCC(NS(=O)(=O)c1ccc(-c2ccc(=O)[nH]n2)s1)c1cccs1 (configuration not stated)	/	-0.3	/	/	-2.3
CCCC(=O)Nc1nc2ccc(NC(=O)c3cccnc3)cc2s1	-34.2	-6.0	13.2%	-4.5	-4.9
CCCN(CCC)C1CC(=O)N(Cc2ccccc2)C1=O (configuration not stated)	-25.6	3.9	5.3%	-1.4	0.7
COC(=O)c1cc(NC(=O)C2C3C=CC(C3)C2C(=O)O)cc(C(=O)OC)c1 (configuration not stated)	2.3	3.3	-4.0%	5.6	-0.7
Cc1ccc(C(=O)NCC(=O)NCC(=O)OCC(=O)c2cccs2)cc1	-23.0	2.8	2.7%	0.2	-0.4
Cc1ccc(S(=O)(=O)N2CCOCC2)cc1NC(=O)CN1CCC(Cc2ccccc2)CC1	/	2.6	9.4%	3.1	6.1
Cc1ccccc1C(=O)Nc1cccc(NC(=O)c2ccc(F)cc2)c1	/	-1.8	/	/	-0.3
O=C(CSc1nc2ccccc2c(=O)[nH]1)Nc1ccccc1N1CCOCC1	/	-0.2	-4.8%	3.1	2.1
CCN(Cc1ccccc1)S(=O)(=O)CCNC(=O)c1ccc(OC)cc1	/	-10.3	/	/	0.3
Cc1[nH]c2ccccc2c1C(O)CN1CCN(c2cccc(C(F)(F)F)c2)CC1 (configuration not stated)	-37.9	82.2	46.9%	-26.3	10.5

This is a subset; count on the stated rates, not on these rows.
